eIF4H FP inh: human eIF4H binding inhibitors, primary screen, translation initiation inhibitor project, biochemical, uHTS, fluorescence polarization; eIF4H fluorescence polarization binding assay; inhibition, % at 35 µM; 290,000 compounds, 0.94% hits; AID 2012, 2009;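 active means 50% or more with normal probe brightness, or confirmed in later tests; inconclusive means above 50% with abnormal brightness, or retests that disagree; inactive means below 50% or failed in later tests; about a fifth of its hits are not listed in these tables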;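 further: calls also rest on retests at 20 µM and on dose response follow-up; 0% = protein and probe with vehicle and 100% = probe without protein; strong numbers were not always called active; many hits fall short of the cut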
Env fusion inh: inhibitors of HIV-1 Env-driven cell-cell fusion, primary screen, HeLa-JRFL effector, CEM21 target cells, luciferase | AID 651610, 2012 | 360,000 compounds, 1.1% hits | inhibition, % at 12.3 µM;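 active means mean replicate inhibition score of at least 50 and every replicate individually at or above 50; inconclusive means only one of the two criteria met; inactive means mean below 50 and not all replicates reaching 50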;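 further: 0% = plate neutral controls and 100% = maraviroc near 300 nM; one replicate is shown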
MT1-MMP act inh: blockers of MT1-MMP proenzyme processing, primary screen, HT1080 RFP-PRO-GFP cells, GFP/RFP fluorescence; Matrix metalloproteinase-14 (Homo sapiens), P50281; GFP/RFP ratio fluorescence, overnight; percent of plate control window, DMSO zero; GFP/RFP ratio change, % at 20 µM; 360,000 compounds, 0.061% hits; AID 651647, 2012;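 active means GFP/RFP ratio change of at least 30% with cell ATP level not reduced by more than half and red fluorescence within 50% of control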; further: strong numbers were not always called active
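Compound: 20 µM single dose, 1% DMSO / System: HT1080 RFP-PRO-GFP cells / Controls: DMSO and RFP-L50D-GFP cell wells / Read-out basis: GFP/RFP fluorescence ratio / Schedule: overnight compound exposure at 37 °C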
PABP polyA inh: PABP poly(A) RNA binding inhibitors, primary screen, biochemical, fluorescence polarization, uHTS. Polyadenylate-binding protein 1 (Homo sapiens), P11940. inhibition, % at 35 µM. 290,000 compounds, 1% hits. AID 2014, 2009;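 active means 50% or more with normal probe brightness, or confirmed in later tests; inconclusive means above 50% with abnormal brightness, or retests that disagree; inactive means below 50% or failed in later tests; about a fifth of its hits are not listed in these tables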;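 further: calls also rest on retests at 20 µM and on dose response follow-up; controls were probe without protein and protein plus probe with vehicle; some compounds called inactive have numbers as strong as hits; many hits fall short of the cut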
Target sequence (P11940 whole entry, looked up): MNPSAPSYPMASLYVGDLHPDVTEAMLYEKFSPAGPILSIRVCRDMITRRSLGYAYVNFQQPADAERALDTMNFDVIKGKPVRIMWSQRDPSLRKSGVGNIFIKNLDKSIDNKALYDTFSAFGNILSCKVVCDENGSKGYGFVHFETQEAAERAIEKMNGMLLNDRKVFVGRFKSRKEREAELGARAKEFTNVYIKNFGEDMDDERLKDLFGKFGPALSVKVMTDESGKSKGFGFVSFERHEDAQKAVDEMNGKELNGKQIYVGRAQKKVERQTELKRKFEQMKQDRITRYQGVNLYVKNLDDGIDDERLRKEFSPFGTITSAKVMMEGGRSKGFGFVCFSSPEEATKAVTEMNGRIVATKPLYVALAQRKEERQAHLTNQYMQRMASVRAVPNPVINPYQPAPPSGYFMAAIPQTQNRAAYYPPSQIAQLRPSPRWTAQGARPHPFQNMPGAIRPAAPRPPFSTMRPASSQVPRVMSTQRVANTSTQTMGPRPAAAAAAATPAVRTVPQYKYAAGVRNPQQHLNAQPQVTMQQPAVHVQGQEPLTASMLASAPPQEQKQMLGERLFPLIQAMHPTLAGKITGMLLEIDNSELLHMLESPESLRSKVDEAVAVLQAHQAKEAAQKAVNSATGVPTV
CSC inhib: cancer stem cell viability inhibitors, primary screen, luminescence; cancer stem cell-like cells viability; inhibition, % at 7.5 µM; 300,000 compounds, 1.1% hits; AID 2717, 2010;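 active means mean at 75% or more and at least half the replicates too; inconclusive means mean and replicates disagree; tested in HMLE shEcad cells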;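 further: 0% = median of negative and 100% = median of positive control wells; the first replicate is given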
Rce1 inh: yeast Rce1p protease inhibitors, primary screen, biochemical, fluorescence, cell-free homogeneous; CAAX prenyl protease 2 (Saccharomyces cerevisiae (strain ATCC 204508 / S288c)), Q03530; yeast membranes, quenched prenylated peptide cleavage fluorescence; calls only; 290,000 compounds, 0.27% hits;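 active means fall in fluorescence gain of 50% or more versus controls, with final raw signal at or below 3038400; inconclusive means same 50% fall but final raw signal above 3038400; inactive means fall in fluorescence gain under 50%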;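 further: plate controls were neutral control wells for no effect and wells lacking membranes for full effect; tested at 10 µM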
Target sequence (Q03530 whole entry, looked up): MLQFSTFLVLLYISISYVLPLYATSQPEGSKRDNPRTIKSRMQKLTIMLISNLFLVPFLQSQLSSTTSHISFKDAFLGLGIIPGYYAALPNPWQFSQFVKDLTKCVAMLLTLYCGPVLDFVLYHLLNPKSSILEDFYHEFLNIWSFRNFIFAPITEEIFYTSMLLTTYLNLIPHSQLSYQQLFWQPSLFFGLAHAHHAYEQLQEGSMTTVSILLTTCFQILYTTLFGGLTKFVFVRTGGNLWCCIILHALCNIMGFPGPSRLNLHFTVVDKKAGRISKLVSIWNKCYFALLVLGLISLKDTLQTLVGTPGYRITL
Yeast UUG start: modulators of yeast start codon fidelity, primary screen, whole organism, S. cerevisiae, single point, plate reader | S. cerevisiae UUG-firefly luciferase reporter, luminescence/redox ratio | AID 602363, 2012 | 350,000 compounds, 0.13% hits | activity score, % at 18.7 µM;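 active means replicate mean at a twofold rise or more, about +100% in these data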;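 further: firefly luciferase made from a UUG start codon reports start codon fidelity; reporter light over untreated wells divided by growth signal over untreated wells; some hits fall short of that in this replicate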
MT1-MMP act inh RFP: recorded beside MT1-MMP act inh, whose call it bears; RFP signal change, %; measured here: RFP expression control read;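 0 = vehicle wells; hits needed this value within 50% of zero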
* hit, by the source's call; i = inactive; ? = inconclusive; . = no result given; & = joins results of further samples.

SMILES	eIF4H FP inh	Env fusion inh	MT1-MMP act inh	MT1-MMP act inh RFP	PABP polyA inh	CSC inhib	Rce1 inh	Yeast UUG start
Cc1cc(O)c(C(C)C)cc1N=Nc1ccccc1C(=O)O	2.7	6.6	22.4	-2.9	-8.4	26.0	i	-13.4
C=C(C)C1Cc2nc(N)nc(C)c2C1 (stereo not drawn)	-11.6	-76.1	3.9	3.1	-1.1	-16.1	i	-15.1
Cc1noc(C)c1S(=O)(=O)N(C)C[C@H]1OCc2cn(nn2)CCCC(=O)N([C@H](C)CO)C[C@@H]1C	.	-1.0	2.0	6.3	.	.	.	1.3&-4.8
CCCc1ccc2oc(C(=O)N3CCC[C@H]3CO)c(C)c2c1	-7.4	-64.7	0.2	2.0	3.7	-7.8	i	-1.8
CC(=O)N1CCC(N(CCN2CCOCC2)C(=S)Nc2cc(C)cc(C)c2)CC1	6.1	0.1	5.2	-0.2	8.2	-15.3	i	-15.7
CCN(CC)CCCN(Cc1cc2cc(OC)ccc2[nH]c1=O)C(=O)Nc1ccccc1	-0.2	.	.	.	-10.6	3.8	i	.
O=C(Cn1cc(C(F)(F)F)ccc1=O)Nc1cccc(S(=O)(=O)N2CCOCC2)c1	-0.8	-10.3	4.9	1.7	1.7	-11.5	i	-5.3
Cc1ccc(CC(=O)Nc2ccc(S(=O)(=O)Nc3nccc(C)n3)cc2)cc1	-12.8	-12.7	9.7	4.8	-16.4	4.7	i	-15.8
O=C(CSc1ncc(-c2ccc(F)cc2)[nH]1)N1CCCCC1	-1.9	.	1.9	-0.9	7.4	-3.3	i	-10.3
COC(Cc1nnc(SC)n1-c1ccccc1)OC	6.3	-35.8	-6.3	1.8	0.9	-8.2	i	22.1
O=C1C=C(NCc2ccc(Cl)c(Cl)c2)C2(CCCCC2)O1	-6.0	.	0.0	-3.9	-6.9	-7.7	i	0.6
C=CCn1c(=O)c(C(=O)NC2CC2)c(O)c2cc(OC)c(OC)cc21	-2.0	-11.6	1.8	0.0	4.1	6.9	i	-14.2
CC(C)Cn1c(-c2cccs2)nc2nc3ccccc3nc21	1.3	.	-5.6	-10.0	-3.4	20.0	i	-10.7
Cc1cc(C)c2c(=O)[nH]c(SCC(=O)Nc3ccc(Br)cc3)nc2n1	-4.2	-6.4	4.3	3.0	-1.3	15.3	i	-13.2
CCOC(=O)C1CCN(CC(O)COCc2ccc(Cl)cc2)CC1 (stereo not drawn)	-2.6	1.8	1.4	5.5	0.0	-9.0	i	-17.3
Nc1nc(SCc2ccc(Cl)cc2Cl)nc2nc3c(cc12)CCCC3	-11.7	13.6	-12.4	-8.7	3.5	23.2	i	.
Cc1cc(C)cc(NC(=O)CSc2nc3c(c(=O)[nH]2)CN(Cc2ccc(F)cc2)CC3)c1	0.2	.	9.5	1.5	-7.4	-4.8	i	.
COc1cc(C(C)=O)ccc1OCC(=O)NC(=O)Nc1ccc(C)cc1C	.	0.2	1.7	-2.7	.	-3.3	.	-13.6
CCOC(=O)C(C)Sc1nnc(CSc2nc3nc(C)cc(C)n3n2)o1 (stereo not drawn)	-7.5	-8.1	-5.5	-1.9	2.5	-18.5	i	-35.5
Cc1ccc2c(COC(=O)c3n[nH]c4ccccc34)cc(=O)oc2c1	-6.8	-158.0	-2.2	-2.0	5.8	-8.8	i	-25.0

Retrieved by compound from the list above:
SMILES	eIF4H FP inh	Env fusion inh	MT1-MMP act inh	MT1-MMP act inh RFP	PABP polyA inh	CSC inhib	Rce1 inh	Yeast UUG start
Cc1noc(C)c1S(=O)(=O)N(C)C[C@H]1OCc2cn(nn2)CCCC(=O)N([C@H](C)CO)C[C@@H]1C	.	-1.0	2.0	6.3	.	.	.	1.3&-4.8
CCOC(=O)C(C)Sc1nnc(CSc2nc3nc(C)cc(C)n3n2)o1 (stereo not drawn)	-7.5	-8.1	-5.5	-1.9	2.5	-18.5	i	-35.5
COC(Cc1nnc(SC)n1-c1ccccc1)OC	6.3	-35.8	-6.3	1.8	0.9	-8.2	i	22.1
Cc1cc(C)c2c(=O)[nH]c(SCC(=O)Nc3ccc(Br)cc3)nc2n1	-4.2	-6.4	4.3	3.0	-1.3	15.3	i	-13.2
O=C1C=C(NCc2ccc(Cl)c(Cl)c2)C2(CCCCC2)O1	-6.0	.	0.0	-3.9	-6.9	-7.7	i	0.6

More entries follow:
SMILES	eIF4H FP inh	Env fusion inh	MT1-MMP act inh	MT1-MMP act inh RFP	PABP polyA inh	CSC inhib	Rce1 inh	Yeast UUG start
Cc1ccc(S(=O)(=O)N2CCCOC2CNC(=O)C(=O)NCc2ccc3c(c2)OCO3)cc1 (stereo not drawn)	-7.1	3.9	2.0	-4.4	-1.8	-13.9	i	-14.4
Nc1cc(=O)[nH]c(SCC(=O)Nc2ccc(S(=O)(=O)N3CCOCC3)cc2)n1	2.2	.	-4.3	1.5	-5.9	4.7	.	-15.7
Cc1cc2c(SCc3ccccc3Cl)nc(N)nc2nc1C	.	3.7	-16.0	-3.8	.	.	.	-12.2
COc1ccccc1N1C(=O)S/C(=C\c2cccs2)C1=O	3.5	-10.2	1.0	4.9	-0.9	-3.4	i	-14.1
Cc1nnc(SCC(=O)NCC2COc3ccccc3O2)s1 (stereo not drawn)	.	-2.9	-3.6	-4.8	.	.	.	7.2
Cc1cc(/C=N/NC(=O)c2cccnc2)c(C)n1CC(C)C	-7.3	-19.3	-1.3	0.7	-22.0	-13.3	i	.
COc1ccc(NC(=O)C(CC(=O)O)Cc2ccc(C)cc2)cc1 (stereo not drawn)	3.3	-2.3	-7.2	1.0	4.5	12.6	i	.
Cc1nc(C(Cl)(Cl)Cl)nc2[nH]ccc(=O)c12	-8.7	?	-4.1	-8.1	-16.3	-8.6	i	.
COc1ccc(NC(=S)N2CCC(N(C)CCN3CCOCC3)CC2)cc1Cl	-2.1	3.8	-0.2	1.8	-11.2	0.6	i	-11.3
COc1ccc(/C=N/NC(=O)c2ccc(N(C)S(=O)(=O)c3ccccc3)cc2)cc1	1.0	6.8	0.0	-3.9	10.4	9.5	i	.
CC(=O)c1cccc(-c2ccc3c(c2)C(C)(Cc2ccccc2F)C(=O)N3)c1 (stereo not drawn)	.	5.0	-0.5	-14.5	.	.	.	-10.9
CCCCCCn1c(=O)n2n(c1=O)[C@@H]1CN(S(=O)(=O)c3ccc(C)cc3)C[C@]1(O)[C@@H](OC(=O)NCC1CCCCC1)C2	.	-2.9	-1.2	-8.3	.	.	.	-3.5
COc1ccc(CC(=O)NCCS(=O)(=O)N2CCN(c3ccccc3)CC2)cc1	.	.	-1.6	-6.4	.	-5.8	i	5.3
CC(=O)c1ccc(OCCCOc2cccc3cccnc23)cc1	2.5	-18.9	2.5	-3.7	-10.3	-7.4	i	-7.5
Cc1cccc(NS(=O)(=O)c2coc(C(N)=O)c2)c1C	-3.1	-2.2	4.9	2.7	11.1	4.5	i	-23.8
CC(=O)N(C)c1ccc(NC(=O)Nc2cccc3ccccc23)cc1	-2.5	-26.4	5.5	3.8	-6.9	0.5	i	-9.4
O=C(CCCN1C(=O)c2cccc3cccc(c23)C1=O)NCc1cccs1	-2.0	-9.1	4.4	5.1	-8.6	-11.7	i	.
Cc1ccc(CN2CCNC(=O)C2CC(=O)O)cc1 (stereo not drawn)	-1.1	-10.9	0.2	4.4	1.9	4.1	i	-4.9
NS(=O)(=O)c1cccc(NC(=O)/C=C/c2cccs2)c1	2.4	-3.8	2.0	-0.8	0.7	4.9	i	.
COCCNc1ncnc2nc[nH]c12	7.8	-11.9	-0.9	-6.5	-9.7	-11.5	i	-14.3
Cn1cnc([N+](=O)[O-])c1Sc1n[nH]c(N)n1	-1.7	-0.4	0.7	2.4	7.2	-4.0	i	-21.3
O=C(C[n+]1ccccc1)Nc1ccccc1C(F)(F)F	48.1	-5.1	-0.6	0.6	22.2	-7.5	i	-0.1
Nc1ccc2nc(CCCCCCCCc3nc4ccc(N)cc4[nH]3)[nH]c2c1	16.8	-2.2	4.7	3.4	28.0	-5.7	i	.
C=CCSc1nsc(NC(=O)Nc2cccc(C(C)=O)c2)n1	1.6	37.4	-11.9	-32.0	3.0	53.5	i	-12.0
O=C(Cc1ccc(F)cc1)NCc1cccnc1	6.5	-1.1	-3.0	6.9	0.9	-4.3	i	-17.1
COc1ccc(Cl)cc1NC(=O)CN(C)C(=O)c1ccc(N2CCCCC2)c([N+](=O)[O-])c1	.	.	4.7	-13.9	.	22.1	i	.
CN(CCCNC(=O)C1CCCN(S(=O)(=O)c2cnc[nH]2)C1)c1ccccc1 (stereo not drawn)	4.8	14.0	2.5	5.9	-5.5	-2.3	i	-6.2
Cc1ccc(NC(=O)c2nc3nccc(C)n3n2)c(C)c1	2.6	-3.4	4.0	3.2	-3.7	-9.8	i	.
Cn1cc(/C(Cc2ccccc2)=N\O)c2ccccc21	-10.0	-198.5	1.2	1.8	0.8	44.1	i	4.4
CCOC(=O)c1c(NCc2ccccc2)n[nH]c1C	1.1	-19.6	3.7	0.6	-12.8	5.0	i	-15.9
CC(=O)N(C)c1ccc(NC(=O)C(c2ccccc2)c2ccccc2)cc1	.	-2.8	-1.9	1.6	.	6.0	.	8.0
Cc1ccc(S(=O)(=O)N2CCN(c3ccccc3)CC2)cc1	7.1	17.1	-1.4	-3.3	4.0	-3.5	i	-19.2
CC(C)c1cccc(-c2csc(C(C)(O)c3cccc(F)c3)n2)c1 (stereo not drawn)	.	-21.7	-3.1	-4.3	.	.	.	-10.0
Cc1nc(CCNC(=O)Cc2ccc(F)cc2)cs1	-8.2	-17.7	3.8	2.6	-3.4	-3.5	i	-13.1
CCOC(=O)c1[nH]c(C)c(C(=O)c2ccc(C)cc2)c1C	7.0	-111.0	-0.7	-10.5	-0.4	60.6	i	-13.8
CCOc1ccc(NCC(=O)N/N=C/C=C/c2ccccc2)cc1	-0.7	7.7	1.3	5.1	1.3	-5.8	i	.
CSc1nnc(CNS(=O)(=O)c2ccc(F)cc2)n1C	-2.8	13.5	-1.9	-0.6	4.8	-11.8	i	5.4
COc1cccc(N2CCN(C(=O)c3ccc(Cl)c(S(=O)(=O)N4CCCCCC4)c3)CC2)c1	.	25.6	1.5	4.3	.	.	.	-8.2
N/C(CS(=O)(=O)c1ccccn1)=N\OC(=O)c1ccccc1Cl	-8.6	-30.5	1.0	-1.5	9.6	-7.4	i	-17.5
COC(=O)CNC(=O)C1Nc2ccc(OC(F)(F)F)cc2C2C=CCC12 (stereo not drawn)	.	5.7	4.2	-2.4	.	7.2	i	-8.6
COC(=O)[C@@]1(Cc2ccc(OC)cc2)[C@H]2c3cc(C(=O)N(C)C)n(CCSCCO)c3C[C@H]2CN1C(=O)c1ccccc1	12.1	.	-6.1	1.7	-1.0	24.8	.	5.4
Cc1cccc(OCC(=O)N2CCC(N3CCCCCC3)CC2)c1	-1.6	-15.3	2.8	2.6	5.8	-0.1	i	-13.4
O=c1ccc(-c2nc3cc(Cl)ccc3n2Cc2ccccc2)c[nH]1	-2.9	1.1	8.1	4.4	-1.5	-11.8	i	.

The list is partial (hit frequency here may not be typical).
